From PubChem
PK Bst = pyruvate kinase (B. stearothermophilus) modulation. actives 1.2% (n = 51,000). Potency, µM. partly purified Bacillus stearothermophilus pyruvate kinase, luminescence ATP production; ribose 5-phosphate activator present at AC10. AID 361; in the data active means potency below about 11 µM; inconclusive means mostly about 12 µM to 25 µM; inactive means weaker than that;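 the screen sought inhibitors and activators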;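 note: potency is the fitted concentration of half-maximal effect; scaled between full activation by ribose 5 phosphate and full inhibition by luteolin; about four in five hits inhibit and the cells do not say which; series up to 57 µM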
YjeE inh = YjeE (TsaE) inhibition, E. coli; P0AF67; purified YjeE, fluorescence polarisation of a bound ADP probe; Potency, µM; actives 0.05% (n = 71,000); active = well fitted falling curve; inconclusive = weaker or top-dose-only fall, or a rising curve; inactive = flat or poorly fitted curve;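 note: top concentration of the series not given in the record; excess ADP was the control for the full effect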
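Purified YjeE (10 uM) with BODIPY Texas Red-labeled ADP probe (2 uM); compounds pin-transferred, 15 min at room temperature. Binding inhibition read as decreased fluorescence polarization; ADP titration as control.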
An asterisk follows results filed as active; i = inactive; . = no result given. These rows are one share of the data. The share of hits here may be higher or lower than overall.

YjeE inh	PK Bst	SMILES
i	>57	CN(C)C(=O)c1ccc(Oc2ccc(C(=O)N(C)C)cc2)cc1
i	0.71*	Nc1cccc(-c2nc3ccc(N)cc3s2)c1
i	.	COc1ccc(-n2c(Cc3cccn3C)nnc2SCC(=O)Nc2ccc(C)c(Cl)c2)cc1
i	.	Cc1cc(SCNC(=O)c2ccccc2)ncn1
i	>57	CC(C)c1ccc(-c2noc(C3CCCN(C(=O)c4ccc(F)cc4F)C3)n2)cc1 (stereo not given)
i	>57	Oc1[nH]c2ccccc2c1C=NCC1CCCO1 (stereo not given)
i	>57	O=S(=O)(c1ccccc1)c1ccccc1/C=N\O
i	>57	O=C(CN1CCOCC1)Nc1cccc(C(=O)Nc2cccc(C(F)(F)F)c2)c1
i	>57	COc1cc(C2c3c(oc4ccccc4c3=O)C(=O)N2CCN2CCOCC2)cc(OC)c1OC (stereo not given)
i	>57	CCc1nnc(NC(=O)CSc2nnc(CNc3ccc(Cl)cc3)o2)s1
i	.	NCCOc1ccccn1
i	>57	Cc1ccnc(NS(=O)(=O)c2ccc(NC(=O)C3CCCCC3)cc2)n1
i	>57	Cc1c(Cl)cnc(NC(=O)COC(=O)C(NC(=O)c2ccco2)C(C)C)c1Cl (stereo not given)
i	>11	CN(C)C(=O)CSc1cccc2cccnc12
i	>57	Cc1cccc(S(=O)(=O)C(C#N)c2nc3ccccc3nc2N2CCOCC2)c1 (stereo not given)
i	>57	CN(c1ccc(C(=O)N2CCCCC2)cc1)S(=O)(=O)c1ccccc1
i	.	Cc1cnc(CNc2ccnc(-c3cccnc3)n2)cn1
i	>57	Cc1ccc2cc(CN(Cc3ccccc3)Cc3nnnn3C3CCCC3)c(=O)[nH]c2c1
i	.	COCC(=O)N1CCC2(CC1)CCN(C(=O)Nc1cccc(C#N)c1)CC2
i	>57	COc1ccc(NS(=O)(=O)c2ccc3c(c2)Cc2ccccc2-3)cn1
i	.	O=C(NCc1ccco1)c1ccc2ccccc2c1
i	>57	CCn1cc(C(=O)NC2CCC(C)CC2)c(=O)c2cc(S(=O)(=O)N3CCCCC3)ccc21 (stereo not given)
i	>57	Cc1ccc(NCc2nnc(SCC(=O)NCc3ccco3)n2CC2CCCO2)cc1Cl (stereo not given)
i	>57	Cc1ccc2c(c1)nnn2C1CCN(CC(=O)Nc2ccccc2N2CCOCC2)CC1
i	.	COc1ccc(OCc2nn3c(-c4ccco4)nnc3s2)cc1
i	>57	O=C(CSc1nnc(CNC(=O)c2cccs2)o1)NCCc1ccccc1
i	.	CCOc1ccc(N(CC(=O)Nc2ccc(OC)cc2)S(=O)(=O)c2c(C)noc2C)cc1
i	.	Cc1noc(C)c1C(=O)N1CCC2(CCN(C(=O)Nc3ccccc3)CC2)CC1
i	>57	O=C(NCc1ccco1)C1(c2ccccc2)CCCC1
i	>11	c1cncc(-c2noc(C34CC5CC(CC(C5)C3)C4)n2)c1
.	>26	CCOC(=O)c1[nH]c2ccc(OC)cc2c1NC(=O)CN1CCN(c2ccccn2)CC1
i	2.2*	COc1ccc(-c2cc(C(=O)N3CCN(c4ccccn4)CC3)c3ccccc3n2)cc1
i	>57	CCc1nnc(NC2=NCCC2)s1
i	>57	COc1cccc(NC(=O)COc2ccc(N3CC(C(=O)NCC(C)C)CC3=O)cc2)c1 (stereo not given)
i	>57	CCC1(CC)C(=O)N(C)C(=O)NC1=NCc1ccccc1
i	>57	Cc1cccc(NC(=O)CN2CCCN(S(=O)(=O)c3ccc(Br)s3)CC2)c1
i	.	CCOC(=O)CC(=O)CSc1ncnc2c1cnn2-c1ccccc1
i	>57	CC1=NCCN1S(=O)(=O)c1cc(Cl)ccc1Cl
i	>57	CC(=O)N1CCN(c2ccc(Oc3ncnc4sccc34)cc2)CC1
i	>57	O=C(CN(C(=O)CSc1nnc(COc2ccccc2)o1)c1ccc(F)cc1)NC1CCCC1
i	>57	Cc1ccc2oc(=O)cc(CN3CCOCC3)c2c1
i	.	Cc1ccccc1-c1nc(CS(=O)CC(=O)NCCN2CCOCC2)c(C)o1 (stereo not given)
i	.	Cc1nc2c(OCc3ccccc3)cccn2c1CC#N
i	.	COC(=O)CCC(=O)c1oc2ccccc2c1N
i	.	O=C1c2ccccc2C(Nc2ccc(F)c(Cl)c2)N1Cc1ccco1 (stereo not given)
i	>57	CCOC(=O)C(NCc1ccccc1OC)(NC(C)=O)C(F)(F)F (stereo not given)
i	>57	CCN(CC(=O)NCc1cccs1)c1nnnn1-c1ccccc1
i	.	CC(C)CCn1cnc2c(cnn2-c2ccc(F)cc2)c1=O
i	.	Cn1c(C(=O)NCCCN2CCOCC2)cc2c(=O)n(C)c3ccccc3c21
i	>57	Cc1cc(C)n2ncc(C(=O)Nc3ccc4c(c3)OCO4)c2n1
i	>57	COc1ccc(N(CC(=O)Nc2cccc(C)c2)S(=O)(=O)c2c(C)n[nH]c2C)cc1
i	>57	O=C(c1ccco1)[C@@H]1[C@@H]2C(=O)N(c3ccccc3)C(=O)[C@@H]2C2c3ccccc3C=CN21 (stereo not given in full)
i	.	O=C1C2ON(c3ccccc3)C(c3ccncc3)C2C(=O)N1c1ccc(N2CCOCC2)cc1 (stereo not given)
i	>57	COC(=O)c1ccc(CSc2nnc(CNC(=O)c3ccccc3F)o2)o1
i	>57	O=C(CSc1nnc(-c2ccncc2)n1C1CCCCC1)Nc1ccccc1
i	>57	CCN(CC)CCCN1C(=O)C(=O)/C(=C(/O)c2ccc3c(c2)OCCO3)C1c1ccc(C)o1 (stereo not given)

Following part
YjeE inh	PK Bst	SMILES
i	>57	CCOc1ccc2[nH]c(=O)c(CN(Cc3cccnc3)C(=O)Nc3ccccc3OC)cc2c1
i	>57	Cc1ccc(NC(=O)C2CCN(S(=O)(=O)c3cccc4nonc34)CC2)nc1
i	>57	CC(=O)c1cc(F)c(N2CCN(C(=O)c3ccco3)CC2)cc1C
i	>57	COc1cccc(CNC(=O)CCS(=O)(=O)c2cccc3nonc23)c1
i	>57	Cc1ccc(C)c(S(=O)(=O)NCc2cccnc2)c1
i	>57	CCCCN(CC)CCCNC(=O)CC1Oc2ccccc2NC1=O (stereo not given)
i	>57	COc1cccc(NC(=O)c2oc3ccccc3c2NC(=O)C(C)(C)C)c1
i	.	O=[N+]([O-])c1cc(Cl)cc2c1nc(NCCO)c1ccccc12
i	>57	CC(=O)N1CCN(CCN=CC2=C(O)CC(C)(C)CC2=O)CC1
i	>57	CN(C)C(=O)CN(c1ccc(F)c(Cl)c1)S(C)(=O)=O
i	>57	O=C(c1ccc(S(=O)(=O)N2CCCCC2)cc1)N1CCN(c2ccccc2)CC1
i	.	CCCC[C@@H]1C[C@H]1C(NC(=O)c1ccccc1)c1ccc(Cl)cc1 (stereo not given in full)
i	>57	O=C1CC(N2CCOCC2)C(=O)N1c1ccc2c(c1)OCO2 (stereo not given)
i	.	CCn1c2ccccc2c2cc(NC(=O)COC(=O)Cc3cn4ccsc4n3)ccc21
i	.	CC(=O)NCCNc1nc(-c2ccc3c(c2)OCO3)nc2ccccc12
i	>57	Cc1ccc(SCCC(=O)N2CCOCC2)cc1
i	>57	COc1ccccc1NC(=O)c1nnn(Cc2ccccc2)c1NC(C)=O
i	>57	N#CC1=C2Sc3ccccc3N2CCCC1=O
i	.	C[C@@H]1O[C@@H](n2cc(F)c(=O)[nH]c2=O)[C@H](O)[C@@H]1O
i	>57	CC1CCCN(CC(=O)Nc2ccc(S(=O)(=O)NC3CCCCC3)cc2)C1 (stereo not given)
i	>57	COc1ccc(C2=NCC(CSc3nccc(=O)[nH]3)S2)cc1 (stereo not given)
.	>26	COc1cc(C2NC(=O)NC(C)=C2C(=O)Nc2cccc(C)c2C)cc(OC)c1OC (stereo not given)
i	>57	Cc1cc(NCCN2CCOCC2)n2nc(C)c(-c3ccccc3)c2n1
i	>57	O=C(c1ccco1)N1CCN(S(=O)(=O)c2ccc(S(=O)(=O)NC3CCCC3)cc2)CC1
i	>57	Cn1c(/C(C#N)=C(\O)COc2ccc3ccccc3c2)nc2ccccc21
i	>57	Cc1ccc2cc(C#N)c(SCC(=O)NCc3ccco3)nc2c1
i	.	CCOC(=O)c1ccccc1NC(=O)Cn1cnc2c(nnn2-c2ccc(C)cc2)c1=O
i	>57	O=C(NCc1ccccn1)Nc1ccc(Cl)c(Cl)c1
i	>57	O=C(OCCOCCN=C1NS(=O)(=O)c2ccccc21)c1ccncc1
i	>57	COc1ccccc1C(=O)N(Cc1cccs1)C1CCS(=O)(=O)C1 (stereo not given)
i	>57	C=CCc1cc(C)cc(C)c1OCCn1cncn1
i	>57	CCc1nnc(NC(=O)CCC(=O)N2CCCC2)s1
i	.	O=c1c2[nH]c3ccccc3c2ncn1CCN1CCCCC1
i	.	COc1ccc(CCN2C(=O)c3ccccc3C2(O)c2ncc[nH]2)cc1OC (stereo not given)
i	>57	COC(=O)c1[nH]c2cccc(OC)c2c1NC(=O)CCN1CCN(c2ccccc2OC)CC1
i	.	COc1cccc(Cn2c(=O)c(-c3ccc(Cl)cc3)nc3cnc(N4CCNCC4)nc32)c1
i	>57	CCS(=O)(=O)Nc1ccc(-c2nnc(SCC(=O)c3cccc(OC)c3)o2)cc1
i	.	CCOc1ccc(C2NC(=O)c3n[nH]c(C)c32)cc1 (stereo not given)
i	>57	COc1ccc(NS(=O)(=O)c2ccc(C)c(C(=O)O)c2)cc1
i	>57	CC(C)OC(=O)CSc1nnc(-c2cnccn2)n1Cc1ccco1
i	.	O=C1CCc2cc(S(=O)(=O)N3CCC(C(=O)NC4CCCC4)CC3)ccc2N1
i	>57	CCOc1cc(C(=O)N(C)Cc2cc3ccccc3[nH]c2=O)cc(OCC)c1OCC
i	>57	CCCc1[nH]nc2c1C(c1cc(OC)cc(OC)c1)C(C#N)=C(N)O2 (stereo not given)
i	>57	COC(=O)Cn1ccc(N(C)C)c(C#N)c1=O
i	>57	Cc1cc(C)nc(Nc2ccccc2Br)n1
i	.	Cn1c(=O)c2[nH]c(/N=N\N3CCN(CCO)CC3)nc2n(C)c1=O
i	.	Fc1ccccc1
i	>57	O=C(CSc1nc2cc(S(=O)(=O)N3CCOCC3)ccc2o1)NC1CCCc2ccccc21 (stereo not given)
i	>57	Cc1cccn2c(=O)c3cc(C#N)c(=O)n(-c4c(C)n(C)n(-c5ccccc5)c4=O)c3nc12
i	>57	Cc1cc(C(=O)OCC(=O)Nc2ncc(C(F)(F)F)cc2Cl)c(C)o1
i	>57	Nc1ncnc2c1CCC2
i	>57	O=C(O)C1CC=CCC1C(=O)Nc1cc(Cl)ccc1Cl (stereo not given)
i	>57	COC(=O)c1sccc1NC(=O)Cn1nnc(-c2ccc(C)cc2)n1
i	>57	Cc1cc(Cl)ccc1NC(=O)CSc1nnc(Cc2cccs2)n1Cc1ccco1
i	>57	CCCC1=C(C(=O)OCC)C(c2ccc(N(C)C)cc2)n2ncnc2N1 (stereo not given)
i	>57	CCOC(=O)c1ccccc1NC(=O)CN1C(=O)c2ccccc2S1(=O)=O

Remaining list, next part:
YjeE inh	PK Bst	SMILES
i	.	CCOc1ccc(C2c3c(oc4ccccc4c3=O)C(=O)N2c2ccc(C)cn2)cc1OC (stereo not given)
i	>57	COc1ccccc1N(CC(=O)N1CCCCC1)S(=O)(=O)c1ccccc1
i	>11	Cc1cccn2c(=O)c(C=NCc3ccccc3)c(NCCO)nc12
i	>57	CCc1cc(C(=O)OC)c(N2C(=O)C3C4C=CC(C4)C3C2=O)s1 (stereo not given)
i	>57	O=C(CN1C(=O)C2CC=CCC2C1=O)Nc1nccs1 (stereo not given)
i	.	N#CCCn1c(=O)c(-c2cc(F)cc(F)c2)nc2cnc(N3CCOCC3)nc21
i	>57	CS(=O)(=O)N(CC(=O)NCCSc1ccccc1)c1ccc2c(c1)OCO2
i	.	O=C(C1CCC(CNc2c(N3CCCCC3)c(=O)c2=O)CC1)N1CCc2ccccc2C1 (stereo not given)
i	>57	COC(=O)c1ccc(N2C(=O)CC(NCc3ccccc3)C2=O)cc1 (stereo not given)
i	>57	COC(=O)Nc1c(C)nn(Cc2ccccc2C)c1C
i	.	COc1ccc(C(=O)N2CCC[C@@]3(CCN(c4cccc(-c5ccccc5)c4)C3)C2)cc1
